VACV Venus inh: vaccinia inhibition (Venus reporter); Potency, µM (titrated, usually from 36.5 µM), for inactives: at the top dose activity change, negative = inhibition, usual class: inhibitors; Vaccinia virus Venus reporter expression, fluorescence; AID 720580; hit rate 0.46% among 330,000; active means well fitted inhibition curve with a large enough effect; inconclusive means small, poorly fitted or top-dose-only effect; inactive means no such curve, though single readings can be large or run the other way; tested in A549 cells; further: nearly all actives have a fitted effect of over 30% in size; inactives centre near -10
Vaccinia mCherry: vaccinia inhibition (mCherry reporter); Vaccinia virus mCherry reporter infection, fluorescence; about a quarter of the inactives have no number; Potency, µM (titrated, usually from 36.5 µM), for the others: top-dose activity change, negative = inhibition, actives largely listed as inhibitors; hit rate 0.63% among 310,000; AID 720579; active = well fitted inhibition curve with a large enough effect; inconclusive = small, poorly fitted or top-dose-only effect; inactive = no such curve, though single readings can be large or run the other way; tested in A549 cells; further: nearly all actives have a fitted effect of over 35% in size; inactives centre near -10
* = called active by the depositor; i = inactive; ? = inconclusive; · = not tested or not shown; & = joins results of further samples; [ ] = another dose, or the depositor's remark. On the % scale 0 is the no-effect control and ±100 the full control effect; potency means the concentration at half of the fitted maximal effect.

SMILES	VACV Venus inh	Vaccinia mCherry
COc1ccc([N+](=O)[O-])cc1NC(=O)c1ccc(-n2nc(C)cc2C)cc1	-3%	-4%
COc1ccc(Oc2nc(-c3ccccn3)nc3ccccc23)cc1	?	4.5µM*
CCOC(=O)C1CCN(C(=O)Cc2c(F)cccc2Cl)CC1	-6%	-20%
O=C(O)Cn1c(CCS(=O)(=O)c2ccc(Br)cc2)nc2ccccc21	-12%	i
Cc1ccc(-c2nn3c(C)nnc3s2)cc1NC(=O)COc1ccc(Cl)cc1	-1%	-20%
CC(C)=C1SC(N2CCN(c3ccc(C)cc3)CC2)=NC1=O	-19%	·
CC(C)OCC1CC(CC(=O)Nc2ccc([N+](=O)[O-])cc2)C(=O)O1 (centres undefined)	1%	-6%
COC(=O)CCCC(=O)Nc1ccc(Br)cc1	-14%	-15%
COc1ccc(CC(=O)N(Cc2ccccc2)c2ccc(C)cc2)cc1OC	-10%	-12%
Cc1ccc(C)c(N2CCN(C(=O)c3ccc4[nH]c(C)c(C)c4c3)CC2)c1	-28%	?
CCN(c1ccccc1)S(=O)(=O)c1nnc(NC(=O)c2ccccc2)s1	-12%	-8%
CNc1ccc(-c2nc(-c3ccccn3)no2)cc1[N+](=O)[O-]	3%	-15%
O=C(CSc1nccn1Cc1ccc2c(c1)OCO2)Nc1ccccc1F	-11%	i
Cc1cc(C(F)F)n2ncc(C(=O)NCc3ccc(F)cc3)c2n1	-6%	i
Cc1cc(=O)oc2cc(OCC(=O)Nc3ccc(O)c(C(=O)O)c3)ccc12	-5%	-5%
OCCCCCCNc1ccc(CCO)cc1	-3%	3%
CC(Oc1ccccc1Cl)C(=O)Nc1ccccc1C(=O)N1CCOCC1 (centres undefined)	-8%	-7%
Cc1nn(-c2ccccc2)c(N)c1N=Nc1ccc2ccccc2c1	-19%	-29%
Cc1cc(N2CCCCC2)nc2ccc(NC(=O)c3ccc(Br)o3)cc12	-28%	?
CC(C)NCC(=O)NC12CC3CC(CC(C3)C1)C2	-19%	i
Cc1nn(CCC#N)c2nc(C(F)(F)F)[nH]c(=O)c12	-14%	·
O=C(C1=NOC(CNc2ncc(C(F)(F)F)cc2Cl)C1)N1CCOCC1 (centres undefined)	-18%	i
Cc1nnc(-c2ccc(Oc3ccc(Br)cc3)c([N+](=O)[O-])c2)o1	-23%	i
C=CCC(CC=C)(NC(=O)c1ccccc1C(=O)O)c1ccccc1	-1%	-8%
COc1cccc(-c2csc(/C(C#N)=C/Nc3cc4oc5ccccc5c4cc3OC)n2)c1	-3%	-2%
CCCCNC(=O)C1c2ccccc2OCC(=O)N1C1CC1 (centres undefined)	-4%	i
CCOC(=O)C1CCN(S(=O)(=O)c2cccc(-c3csc(C)n3)c2)CC1	-9%	·
COc1cccc(OC)c1OCCOc1ccc(C(=O)c2ccccc2)cc1	-13%	i
O=C(C1COc2ccccc2O1)N1CCN(S(=O)(=O)c2ccccc2)CC1 (centres undefined)	-17%	-21%
CC(C)NC(=O)c1ccc2c(c1)S(=O)(=O)c1ccccc1C2=O	0%	·
COc1ccc(N2CCN(C(=O)C3CCN(S(=O)(=O)N4CCOCC4)CC3)CC2)cc1	-12%	·
CC(C)NS(=O)(=O)c1ccc(Br)c(C(=O)OC(C)C(=O)NC2CCCCC2C)c1 (centres undefined)	-7%	-21%
O=C(O)CC(NC(=O)C(c1ccccc1)c1ccccc1)c1ccco1 (centres undefined)	-11%	·
CCCN1CCC[C@@H]2Cc3nc(N)ncc3C[C@H]21	-21%	i
Oc1c(C(c2cccs2)N2CCC3(CC2)OCCO3)sc2ncnn12 (centres undefined)	-11%	i
CCn1c(CC(=O)Nc2ccc(Cl)c(Cl)c2)nnc1SCc1ccc(C)cc1	-8%	i
CCc1cccc(NC(=O)CN(C)S(=O)(=O)c2cnc[nH]2)c1	-13%	·
CCS(=O)(=O)c1ccc2c(c1)N(S(C)(=O)=O)CC(C(=O)NC1CC1)O2 (centres undefined)	-2%	2%
O=c1c(Cl)c(Cl)cnn1Cc1nnc(-c2ccccc2Br)o1	?	?
Fc1ccccc1Nc1nc(Cl)nc(Cl)n1	1%	-13%
COC(=O)c1ccc(NC(=S)NC2CCc3ccccc32)cc1 (centres undefined)	5%	i
CCN(CC)C(=O)Cn1nnc2sc(-c3ccccc3)cc2c1=O	-11%	-13%
S=C1N(c2ccccc2)CN(CCN2CCOCC2)CN1c1ccccc1	-11%	-12%
CN1C(=O)/C(=C/c2cc3c(cc2Br)OCO3)NC1=S	-12%	-26%
COc1ccccc1CC(=O)Nc1ccc2nc(N3CCC(C)CC3)cc(C)c2c1	-18%	-9%
COc1ccc(-n2c(=O)c3c(c4cc(OC)ccc4n3C)n(CC(=O)NCC3CCCO3)c2=O)cc1 (centres undefined)	1%	-5%
CN(C)C(=O)CCc1ccc2c3c([nH]c2c1)[C@]1(C)[C@@H](C(=O)N2CCOCC2)C[C@H](CC(=O)NCCN2CCOCC2)C(=O)N1CC3	-7%	i
O=[N+]([O-])c1cc(S(=O)(=O)C(F)(F)F)ccc1N1CCN(c2ccccc2)CC1	-16%	-16%
CC(=O)c1c(C)[nH]c(C(=O)Nc2cccc3ccccc23)c1C	0%	-9%
COc1ccc(S(=O)(=O)N2CCN(Cc3ccc4c(c3)OCO4)CC2)cc1	5%	-15%

Entries shown so far with a thiophene ring, fused or not, in the order listed:
SMILES	VACV Venus inh	Vaccinia mCherry
Oc1c(C(c2cccs2)N2CCC3(CC2)OCCO3)sc2ncnn12 (centres undefined)	-11%	i
CCN(CC)C(=O)Cn1nnc2sc(-c3ccccc3)cc2c1=O	-11%	-13%

Further entries follow.
SMILES	VACV Venus inh	Vaccinia mCherry
O=C(NCc1ccccc1)C1C(=O)Nc2ccccc2C(=O)N1C1CCCC1 (centres undefined)	0%	-8%
COc1ccc(S(=O)(=O)N2CCSCC2)cc1C(N)=O	-6%	i
Cc1ccc(NC(=O)CSCC(=O)N=c2sccn2C)cc1	-10%	-13%
Cc1ccc(S(=O)(=O)N2CCCC2=O)c(C)c1N(C)S(C)(=O)=O	-13%	-20%
COC(=O)c1ccc(Cl)c(-c2ccc(/C=N/NC(=O)Nc3ccccc3)o2)c1	-10%	·
CCOc1cccc(NC(=O)CSc2sc3c(O)cc(=O)[nH]c3c2C#N)c1	3%	17%
CCOC(=O)[C@@H]1[C@H]2COc3ccc(Br)cc3[C@H]2N2C(=O)N(c3cccc(C)c3)C(=O)[C@]12C	-10%	i
Cc1ccc(C(C)(C)C)c(SCC(=O)Nc2nnc(C)s2)c1	-10%	-11%
COc1cc(/C=C/c2ccc3cccc(O)c3n2)ccc1O	?	?
NS(=O)(=O)c1ccc(NC(=O)CSc2nc3ccccc3nc2N2CCOCC2)cc1	6%	i
O=C(Nc1ccccc1F)N1CCC(NC(=O)C23CC4CC(CC(C4)C2)C3)CC1	10%	5%
N/C(=N\OC(=O)Cc1cccs1)c1cccc([N+](=O)[O-])c1	6%	-8%
CC(=O)Nc1ccc(-c2cc(-c3ccc(NC(C)=O)cc3)nc(-c3ccc(NC(C)=O)cc3)n2)cc1	-8%	i
CN1CCN(S(=O)(=O)c2cc([N+](=O)[O-])ccc2N2CCCCCC2)CC1	-6%	-19%
Cc1ccc(-c2nn(CC(=O)NCc3ccccc3)c3c2cnc2ccc(F)cc23)cc1C	1%	0%
CCc1nc2ccc(C(=O)NCCCn3ccnc3)cn2c1N(CC)CCN(C)C	0%	38%[activator]
CC1CCCCN1C(=O)COC(=O)C1CCN(S(=O)(=O)c2ccc(Cl)c(C(F)(F)F)c2)CC1 (centres undefined)	0%	-13%
CCCOc1ccc(/C=N/NC(=O)c2ccc(Cn3cc([N+](=O)[O-])cn3)o2)cc1	2%	-11%
CCCC(=O)N1CCC1(C)C(=O)Nc1ccc(OC(F)F)cc1 (centres undefined)	-1%	16%
N#Cc1nc(COc2ccc(Br)cc2)oc1N1CCN(Cc2ccccc2)CC1	-23%	-3%
CCCCC(=O)NC(c1cccc([N+](=O)[O-])c1)c1c(OC(C)=O)ccc2ccccc12 (centres undefined)	?	28µM*
Cc1ccc2[nH]c(=O)c(CN(CCO)C(=O)NCc3ccccc3)cc2c1	-13%	-24%
O=C(/C=C/c1ccc2c(c1)OCO2)c1c(O)n(CCC2=CCCCC2)c(=O)[nH]c1=O	-8%	i
CCc1nc(SCc2ccccn2)c2c(=O)n(C)c(=O)n(C)c2n1	-17%	-3%
CCOc1ccc(OCc2ccc(C(=O)N/N=C(\C)c3ccccn3)cc2)cc1	?	1.8µM*
C[C@H](NC(=O)c1nc[nH]c1C(=O)N[C@@H](CCCCN)C(=O)OC(C)(C)C)C(=O)OC(C)(C)C	-6%	-1%
CC1=C(C(=O)Nc2cc(Cl)ccc2C)C2(CCCCC2)OC1=O	-4%	-9%
Cc1nc(SCc2ccc(Br)cc2)[nH]c(=O)c1C	-23%	-1%
CC1(C)OC(=O)C(=CNNc2c(Cl)cc(Cl)cc2Cl)C(=O)O1	-13%	i
Cc1ccc2oc(-c3cccc(NC(=O)C4CCCO4)c3)nc2c1 (centres undefined)	-16%	-8%
C/C(=C(\C#N)C(=O)NC1CCCCC1)N(C)C	-7%	·
Cc1ccn2c(=O)c(C(=O)NC3CCCCC3C)c(O)nc2c1 (centres undefined)	-8%	-5%
CCOC(=O)C1=C(COC(=O)c2cccnc2Cl)NC(=O)NC1C (centres undefined)	-3%	-15%
O=C(OCCN1C(=O)c2cccc3c(N4CCOCC4)ccc(c23)C1=O)c1ccc(Cl)cc1	-16%	-9%
Cc1cccnc1C(c1ccc(F)cc1)N(C)C(=O)C1CCN(CCCOc2ccc(F)cc2)CC1 (centres undefined)	-12%	i
CCCCC(=O)Nc1ccc(S(=O)(=O)Nc2nccc(C)n2)cc1	-5%	-9%
Cc1ccsc1/C=N/NS(=O)(=O)c1ccc([N+](=O)[O-])cc1	?	-25%
COC(=O)c1sc2ccccc2c1NC(=O)c1ccc(S(=O)(=O)N2CCCCC2)cc1	-4%	i
NC(=O)c1cc([N+](=O)[O-])ccc1N1CCCCC1	-12%	i
CC(=O)N=c1sc(S(N)(=O)=O)nn1C	-12%&-2%	-8%

Entries of single compounds, looked up by structure:
O=C(OCCN1C(=O)c2cccc3c(N4CCOCC4)ccc(c23)C1=O)c1ccc(Cl)cc1 in the list: VACV Venus inh = -16%; Vaccinia mCherry = -9%
Cc1cc(=O)oc2cc(OCC(=O)Nc3ccc(O)c(C(=O)O)c3)ccc12 in the list: VACV Venus inh = -5%; Vaccinia mCherry = -5%
Cc1nc(SCc2ccc(Br)cc2)[nH]c(=O)c1C in the list: VACV Venus inh = -23%; Vaccinia mCherry = -1%

Next section
SMILES	VACV Venus inh	Vaccinia mCherry
O=C(O)CCC(=O)Nc1ccccc1C(=O)NCc1ccccc1	-4%	-10%
O=S(=O)(c1cc(Cl)cc(Cl)c1)N1Cc2cc(N3CCOCC3)ccc2-n2nncc2C1	-9%	-10%
CC(C)(C)C(=O)C(CO)(Oc1ccc(Cl)cc1)n1cncn1 (centres undefined)	-6%	i
COc1ccc(/C=C2\C=Cc3ccccc32)cc1	-4%	-11%
CCOC(=O)c1ccc(NC(=O)COc2ccccc2OC)cc1	0%	·
Cc1ccc(NC(=O)Cn2cc3c(n2)CCC(C)C3)cc1 (centres undefined)	-9%	-9%
CC(C)NC(=O)c1ccccc1S(=O)(=O)c1ccccc1C#N	-17%	·
CC(=O)c1ccc(N2CCN(c3ccc(C(N)=O)cc3[N+](=O)[O-])CC2)cc1	-25%	-23%
CC(C)CCCC(C)C1CCC2C3CC(=O)[C@H]4CC(O)CC[C@]4(C)C3CC[C@@]12C (some centres undefined)	-16%	-16%
Clc1cccc(-n2ncc3c(N4CCCCC4)ncnc32)c1	-7%	-8%
CCCCOC(=O)NC1CCc2cc(OC)c(OC)c(OC)c2-c2ccc(SC)c(=O)cc21 (centres undefined)	?	i
CCOC(=O)C1(Cc2ccc(OC)cc2)CCN(C(=O)CCc2cnccn2)CC1	-5%	-3%
Cc1ccc2nc(NCc3ccccc3)c(C=O)c(=O)n2c1	-13%	-11%
CCc1ccc2c(c1)c(=O)c(S(=O)(=O)c1ccc(F)cc1)cn2CC(=O)Nc1ccc(C)cc1C	-21%	-21%
Nc1nc(-c2ccc(Cl)cc2)cn1N	-2%	-16%
O=C(NCc1ccccc1)c1cc2ccc3cccnc3c2[nH]1	-4%	-9%
O=C(N/N=C/c1ccc(OCc2ccccc2)cc1)c1cc[n+](Cc2ccccc2)cc1	-1%	-7%
CCOC(=O)c1ccc(NC(=O)CSc2nc3cc4ccccc4cc3[nH]2)cc1	-7%	-22%
O=C(Cc1ccc(Cl)cc1)NC1CCCCCC1	-8%	i
O=C(N/N=C/c1cccc(C(F)(F)F)c1)c1ccccc1O	?	?
CCOC(=O)c1c(C)[nH]c(C)c1S(=O)(=O)N(C)CC(=O)Nc1cc(Cl)ccc1OC	-8%	-10%
Cc1[nH]nc(SCC(=O)NCc2ccc(F)cc2)c1[N+](=O)[O-]	0%	3%
Cc1ccc(C)c(NS(=O)(=O)c2c(C)[nH]c(C)c2C(=O)N2CCCCC2)c1	-18%	-14%
Cc1cccc(NC(=O)CN2C(=O)C3CC=CCC3C2=O)c1C (centres undefined)	-18%	-10%

Given with bars between the fields: three of the compounds above.
Structure | VACV Venus inh | Vaccinia mCherry
Cc1ccc(C(C)(C)C)c(SCC(=O)Nc2nnc(C)s2)c1 | -10% | -11%
COc1cc(/C=C/c2ccc3cccc(O)c3n2)ccc1O | ? | ?
NS(=O)(=O)c1ccc(NC(=O)CSc2nc3ccccc3nc2N2CCOCC2)cc1 | 6% | i
